Source: PubChem BioAssay
Rce1 inhib: blocks yeast Ras-converting enzyme | Q03530 | yeast membranes, quenched prenylated peptide cleavage fluorescence | calls only | actives 0.27% (n = 290,000);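 active = fall in fluorescence gain of 50% or more versus controls, with final raw signal at or below 3038400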;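 also: plate controls were neutral control wells for no effect and wells lacking membranes for full effect; tested at 10 µM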
Env fusion inh: HIV envelope-mediated fusion inhibition; HeLa-JRFL Env/CEM21 cell fusion, luciferase; actives 1.1% (n = 360,000); inhibition, % at 12.3 µM;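 active = mean replicate inhibition score of at least 50 and every replicate individually at or above 50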;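 also: 0% = plate neutral controls and 100% = maraviroc near 300 nM; one replicate is shown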
PABP polyA inh: blocks human PABP binding to poly(A) RNA | inhibition, % at 35 µM | P11940 | fluorescence polarization | actives 1% (n = 290,000);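 active = 50% or more with normal probe brightness, or confirmed in later tests; about a fifth of its hits are not listed in these tables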;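 also: calls also rest on retests at 20 µM and on dose response follow-up; controls were probe without protein and protein plus probe with vehicle; some compounds called inactive have numbers as strong as hits; many hits fall short of the cut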
Target sequence (P11940 whole entry, looked up): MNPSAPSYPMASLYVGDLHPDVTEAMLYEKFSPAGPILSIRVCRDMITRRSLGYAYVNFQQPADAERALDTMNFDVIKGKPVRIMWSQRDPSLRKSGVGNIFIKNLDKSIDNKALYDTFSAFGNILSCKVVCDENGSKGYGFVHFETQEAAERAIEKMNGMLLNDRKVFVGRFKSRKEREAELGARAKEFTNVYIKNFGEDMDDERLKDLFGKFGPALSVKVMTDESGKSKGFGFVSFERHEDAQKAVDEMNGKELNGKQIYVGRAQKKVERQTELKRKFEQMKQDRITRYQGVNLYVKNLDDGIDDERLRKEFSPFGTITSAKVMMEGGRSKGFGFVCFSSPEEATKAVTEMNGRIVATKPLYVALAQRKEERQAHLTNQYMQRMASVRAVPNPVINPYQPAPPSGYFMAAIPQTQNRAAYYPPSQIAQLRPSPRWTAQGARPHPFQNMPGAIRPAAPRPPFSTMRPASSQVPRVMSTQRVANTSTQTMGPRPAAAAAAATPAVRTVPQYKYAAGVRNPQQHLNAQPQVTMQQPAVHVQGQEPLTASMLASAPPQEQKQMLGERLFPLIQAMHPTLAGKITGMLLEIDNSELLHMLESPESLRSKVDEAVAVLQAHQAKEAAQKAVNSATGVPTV
Yeast UUG start: modulators of start codon recognition fidelity in yeast; S. cerevisiae UUG-firefly luciferase reporter, luminescence/redox ratio; activity score, % at 18.7 µM; actives 0.13% (n = 350,000);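 active = replicate mean at a twofold rise or more, about +100% in these data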;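 also: firefly luciferase made from a UUG start codon reports start codon fidelity; reporter light over untreated wells divided by growth signal over untreated wells; some hits fall short of that in this replicate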
eIF4H FP inh: inhibitors of RNA binding by human eIF4H | eIF4H fluorescence polarization binding assay | inhibition, % at 35 µM | actives 0.94% (n = 290,000);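 active = 50% or more with normal probe brightness, or confirmed in later tests; about a fifth of its hits are not listed in these tables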;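 also: calls also rest on retests at 20 µM and on dose response follow-up; 0% = protein and probe with vehicle and 100% = probe without protein; strong numbers were not always called active; many hits fall short of the cut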
CSC inhib: blocks cancer stem cells; cancer stem cell-like cells viability, luminescence; inhibition, % at 7.5 µM; actives 1.1% (n = 300,000); AID 2717;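 active = mean at 75% or more and at least half the replicates too; tested in HMLE shEcad cells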;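 also: 0% = median of negative and 100% = median of positive control wells; the first replicate is given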
MT1-MMP act inh: MT1-MMP (human) activation inhibition | P50281 | HT1080 RFP-PRO-GFP cells, GFP/RFP ratio fluorescence, overnight; percent of plate control window, DMSO zero | actives 0.061% (n = 360,000) | GFP/RFP ratio change, % at 20 µM | AID 651647;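 active = GFP/RFP ratio change of at least 30% with cell ATP level not reduced by more than half and red fluorescence within 50% of control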; also: strong numbers were not always called active
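system = RFP-PRO-GFP reporter HT1080 cells | dosing = 20 µM single dose, 1% DMSO | timing = overnight cell settling, then overnight compound exposure, 37 °C, 5% CO2 | read-out basis = GFP/RFP fluorescence ratio | controls = DMSO and RFP-L50D-GFP cell wells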
MT1-MMP act inh RFP: recorded beside MT1-MMP act inh, whose call it bears; RFP signal change, %; measured here: RFP expression control read;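 0 = vehicle wells; hits needed this value within 50% of zero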
* hit, by the source's call; i = inactive; . = not tested or not shown; & = joins results of further samples. An unsorted share of the library. About 3% of those tested had a hit in this group.

compound	Rce1 inhib	Env fusion inh	PABP polyA inh	Yeast UUG start	eIF4H FP inh	CSC inhib	MT1-MMP act inh	MT1-MMP act inh RFP
Cc1coc2c1c(C)cc1oc(=O)c(CC(=O)N[C@@H](CC(C)C)C(=O)O)c(C)c12	i	0	12	8	1	-8	-7	0
O=C(Oc1ccc2ccccc2c1Cl)N1CCCCCC1	i	.	2	.	-10	23	9	0
CCOC(=O)N1C(=O)[C@@](c2ccc(Cl)cc2)(C(C)C)N1C(=O)OCC	i	-24	-1	4	-7	78*	-9	-3
COC(=O)c1ccc(NC(=O)COC(=O)c2cccc3c(=O)c(C)c(-c4ccccc4)oc23)cc1	i	11	0	.	-9	-3	-3	-10
O=C1OCc2cc(NC(=O)C3CCCCC3)ccc21	.	-93	-1	-10	-10	-5	1	-1
CCOc1cc(Br)cc(C(c2c(C(=O)O)[nH]c3ccccc23)c2c(C(=O)O)[nH]c3ccccc23)c1O	i	-25	39	-11	32	-11	-1	3
COc1ccc(C(C(=O)NC2CCCC2)N(CCN(C)C)C(=O)c2snc(C(N)=O)c2N)cc1 (configuration not stated)	i	-3	-4	0	-10	.	7	3
OC(C#CCN1CCCCCC1)(c1ccccc1)c1cccnc1 (configuration not stated)	i	-8	4	.	-1	1	-1	1
[O-]c1n[n+](-c2ccc(Cl)cc2Cl)cc2ccccc12	i	2	8	-7	13	12	12	12
Cc1ccc(NC(=O)/C(C#N)=C/c2ccc(Sc3nc(C)cc(C)n3)o2)cc1	i	.	-7	-20	-2	-1	-5	4
O=C(C1CCC(CNc2nc(=S)[nH]c3ccccc23)CC1)N1CCN(c2ccccn2)CC1 (configuration not stated)	i	65*	-4	-20	-2	11	0	-21
C=CCSc1nnc(-c2ccncc2)n1-c1ccc(OCC)cc1	i	.	-1	-3	-4	7	-1	3
N=c1sccn1CC(=O)Nc1ccccc1Sc1ccccc1	i	-3	-10	.	3	-3	3	4
C=CCN(CC=C)S(=O)(=O)c1ccc2nsnc2c1	i	.	-15	-37	5	-14	-2	-1
COc1ccccc1NC(=O)CCS(=O)(=O)c1ccc2c(c1)NC(=O)C(C)S2 (configuration not stated)	i	.	3	5	-13	-2	-5	-1
Cn1cnnc1SCC(=O)Nc1ccc2c(c1)CCC2	i	-1	1	-11	-5	-9	3	-1
CCC(=O)N1CCN=C1SCc1cccc(F)c1	i	0	1	-26	-4	12	5	3
CCc1nc2ccc(C(=O)NCCN3CCNC3=O)cn2c1N(CC)CCOC	.	5	.	15	.	.	-39	-57
CC(=O)OCC1O[C@@H](O[C@@H]2C[C@H]3C(C)(C)[C@H](OC(C)=O)CC[C@]3(C)[C@H]3CC[C@]45C[C@]4(CC[C@H]5[C@@H](C)C[C@@H](O)[C@H](O)C(C)(C)O)[C@@]32C)[C@H](O)[C@@H](O)[C@@H]1O (some centres not stated)	i	.	11	.	6	102*	.	.
CCC/C(=N\NC(=O)c1ccc(CSc2nncn2C)cc1)c1ccccc1	i	.	-6	.	2	3	1	5
COc1ccccc1C(=O)NC(C)c1nc2ccccc2[nH]1 (configuration not stated)	i	-27	-4	-6	1	-10	1	1
CCOC(=O)C(C)Oc1cccc2c(=O)n(CC(=O)N3CCCc4ccccc43)ccc12 (configuration not stated)	i	3	-2	5	0	.	.	.
COC(=O)c1ccc(CSc2nnc3c(n2)[nH]c2ccccc23)cc1	i	0	5	-11	-8	-4	6	-3
Cn1c(=O)[nH]c(=O)c2c1nc(N1CCCC1)n2CCO	i	3	-2	-15	-12	-3	1	3
CN(CCc1ccccn1)C1CC(=O)N(c2ccc(Cl)cc2)C1=O (configuration not stated)	i	.	9	-29	-4	-17	2	4
CC(C)(C)n1nnnc1C(c1cccs1)N1CCN(C(=O)c2ccco2)CC1 (configuration not stated)	i	-314	4	-12	-7	13	5	-1
COc1cc(-c2nnc(NC(=O)CCS(=O)(=O)c3ccccc3)o2)cc(OC)c1OC	i	.	.	-16	.	1	5	1
COc1nc(N/N=C/c2ccccc2F)nc(N2CCCCC2)n1	i	-21	-1	-23	-6	.	0	-3
CCC(NC(=O)c1cc(COc2ccc(F)c(F)c2)on1)c1ccncc1 (configuration not stated)	i	-2	-4	-9	14	.	-7	-13
COc1cc2c(C(F)(F)F)c(-c3ccsc3)oc(=O)c2cc1OC	.	-179	.	-1	.	.	1	3

Records listed above shown as hits in Env fusion inh.
| SMILES | Rce1 inhib | Env fusion inh | Yeast UUG start | MT1-MMP act inh | MT1-MMP act inh RFP |
| --- | --- | --- | --- | --- | --- |
| O=C(C1CCC(CNc2nc(=S)[nH]c3ccccc23)CC1)N1CCN(c2ccccn2)CC1 (configuration not stated) | i | 65* | -20 | 0 | -21 |

An excerpt of these results, with two lines to a compound.
Sequence of screens – Rce1 inhib | Env fusion inh | PABP polyA inh | Yeast UUG start | eIF4H FP inh | CSC inhib | MT1-MMP act inh | MT1-MMP act inh RFP
- COC(=O)c1ccc(NC(=O)COC(=O)c2cccc3c(=O)c(C)c(-c4ccccc4)oc23)cc1
    i | 11 | 0 | . | -9 | -3 | -3 | -10
- O=C1OCc2cc(NC(=O)C3CCCCC3)ccc21
    . | -93 | -1 | -10 | -10 | -5 | 1 | -1
- CCOc1cc(Br)cc(C(c2c(C(=O)O)[nH]c3ccccc23)c2c(C(=O)O)[nH]c3ccccc23)c1O
    i | -25 | 39 | -11 | 32 | -11 | -1 | 3
- COc1ccc(C(C(=O)NC2CCCC2)N(CCN(C)C)C(=O)c2snc(C(N)=O)c2N)cc1 (configuration not stated)
    i | -3 | -4 | 0 | -10 | . | 7 | 3
- OC(C#CCN1CCCCCC1)(c1ccccc1)c1cccnc1 (configuration not stated)
    i | -8 | 4 | . | -1 | 1 | -1 | 1
- [O-]c1n[n+](-c2ccc(Cl)cc2Cl)cc2ccccc12
    i | 2 | 8 | -7 | 13 | 12 | 12 | 12
- Cc1ccc(NC(=O)/C(C#N)=C/c2ccc(Sc3nc(C)cc(C)n3)o2)cc1
    i | . | -7 | -20 | -2 | -1 | -5 | 4

Following part.
Molecule | Rce1 inhib | Env fusion inh | PABP polyA inh | Yeast UUG start | eIF4H FP inh | CSC inhib | MT1-MMP act inh | MT1-MMP act inh RFP
Cc1sc(NC(=O)CN(Cc2ccc(F)cc2)C(=O)C(C)C)c(C(N)=O)c1C | i | . | -2 | 5 | -6 | -17 | 4 | -3
COc1cc(NS(=O)(=O)c2ccc(NS(=O)(=O)c3ccc(C)cc3)cc2)nc(OC)n1 | i | -2 | 1 | 12 | -1 | . | 0 | 0
CCOC(=O)CNC(=O)c1cccs1 | i | 0 | 0 | -25 | 6 | -4 | -2 | -4
O=C(Nc1c(Cl)cccc1Cl)c1ccc(-c2ccccc2)cc1 | i | . | -9 | -10 | 0 | -6 | 2 | 5
CCCCS(=O)(=O)NC1=NCN(CCO)CN1 | i | -14 | 8 | -10 | -4 | -16 | 5 | 3
O=C(CSc1nnc(Cc2cc(=O)[nH]c(=O)[nH]2)n1-c1ccccc1)N1CCCc2ccccc21 | . | -7 | 1 | -21 | 2 | 13 | -3 | 5
CN(C(=O)c1ccccc1OCc1ccc(F)cc1)c1c(N)n(Cc2ccccc2)c(=O)[nH]c1=O | . | 1 | . | 3 | . | . | 0 | -1
CC(C)OCCCn1c(=O)c2ccccc2n2c(CCC(=O)N3CCN(c4ccccn4)CC3)nnc12 | i | -4 | -4 | 0 | 3 | 4 | 1 | -3
CCOC(=O)NC(=O)C(=CNc1cccc(OC)c1)C(=O)NC(=O)OCC | . | 16 | 28 | -7 | 4 | -3 | 2 | 3
CCc1ccc(/C=N/n2c(COc3ccccc3)n[nH]c2=S)cc1 | i | -5 | -7 | -4 | 3 | -5 | 2 | 4
C[C@@H]1CN([C@H](C)CO)C(=O)c2cc(Br)cnc2O[C@H]1CN(C)C(=O)CC1CC1 | . | 6 | . | -15&-15 | . | . | 1 | 4
CS(=O)(=O)NCc1ccc(C(=O)O)cc1 | i | 14 | 5 | . | 6 | . | 0 | 4
O=C(Nc1ccncc1)c1ccc(F)cc1 | i | -56 | -7 | -8 | -5 | 4 | -2 | 3
CN(CC(=O)Nc1ccc(F)cc1)CC(=O)Nc1ccc(F)c(F)c1F | i | -2 | 4 | 3 | -13 | -7 | 2 | 0
Cc1cccc(NC(=S)N=Nc2c(O)n(C)c3ccc(S(=O)(=O)N4CCOCC4)cc23)c1 | i | 58* | -5 | -17 | 4 | 29 | 3 | -7
CCOC(=O)N1CCN(C(=O)c2ccc(S(=O)(=O)Nc3ccc(C)cc3)cc2)CC1 | . | -16 | . | . | . | 3 | -2 | -23
Cc1cc(C)c2nc(/N=C(\N)NC(=O)c3ccccc3)nc(C)c2c1 | i | 10 | -10 | -17 | -6 | -3 | 0 | -3
CC(C)[C@@H]1NC(=O)N(c2ccc(Oc3ccccc3)cc2)C1=O | i | . | 0 | -2 | 4 | -9 | -2 | -5
O=C(Nc1ccccc1C(=O)N1CCN(Cc2ccccc2)CC1)c1ccccn1 | i | . | -5 | -20 | 0 | -8 | 1 | 6
Cc1cc(=O)oc2cc(OCC(=O)N3CC(=O)Nc4ccccc43)c(Cl)cc12 | . | -31 | . | -16 | . | -14 | -2 | 0
O=C(NCCC(=O)N1O[C@@H]2C=C[C@H]1C2)OCC1c2ccccc2-c2ccccc21 | . | -12 | . | -14 | . | . | -1 | 1
Cc1ccccc1Cn1nc(C)c(NC(=O)c2cc3n(n2)C(C(F)F)CC(C(F)F)N3)c1C (configuration not stated) | . | . | -1 | 2 | -4 | -8 | -1 | -2
CN(CC(=O)Nc1ccccc1Cl)C(=O)Cn1nnc(-c2ccc(F)cc2)n1 | i | -4 | . | -18 | . | -1 | -4 | -6
COc1ccc(NC(=O)c2ccccc2NC(=O)CSc2ccccc2)cc1 | i | -35 | -4 | . | -13 | -1 | -1 | -5
O=C(NCc1cccc(C(F)(F)F)c1)c1cccc(S(=O)(=O)NCc2ccccc2)c1 | i | 2 | 4 | -17 | 8 | -1 | -1 | -5
COc1cccc(/C=C2\CCC(C3CCCC3)C2=O)c1OC (configuration not stated) | i | -20 | -4 | -37 | 0 | 11 | -2 | 0
CC(C)(C)Cc1nnc(NC(=O)CCC2CCCCC2)s1 | i | . | -13 | -12 | -5 | -6 | 1 | -2
O=C(COC(=O)C1CCN(C(=O)c2ccc(Cl)cc2)CC1)NC1CCS(=O)(=O)C1 (configuration not stated) | i | 4 | 11 | -10 | 2 | 4 | 10 | 8
S=c1[nH]nc(-c2ccccc2Cl)n1Cc1ccccc1 | i | 19 | -4 | -24 | -6 | -6 | 0 | 0
COc1cccc(/C=C2/Sc3ccc(C(=O)NCCN4CCCCCC4)cc3NC2=O)c1 | i | 9 | -23 | -18 | -8 | -16 | 4 | 0
CC(=O)Nc1cccc(C(=O)NCC2(N3CCCCC3)CCCCC2)c1 | i | 3 | -11 | . | -5 | 9 | 0 | -1
COc1ccc(OC)c([C@@H]2OCCC=C[C@H]2C)c1 | i | -7 | 4 | -12 | 9 | -8 | 4 | 2
COc1ccc(C2CC(=O)Oc3cc(C)c(Cl)cc32)cc1 (configuration not stated) | . | -27 | . | 0 | . | . | 7 | 4
CC1(c2nnc(-c3ccc(Cl)cc3)o2)CC(c2ccncc2)=NO1 (configuration not stated) | i | -32 | 13 | -9 | -6 | -8 | -1 | -7
COC(=O)C1=C(C)Nc2[nH]c(=S)[nH]c(=O)c2C1c1ccc(O)cc1 (configuration not stated) | i | 8 | -1 | -14 | 10 | -1 | 0 | 0
